High-throughput results as filed in PubChem.
Rin1 Abl inh: blocks binding of human Rin1 to Abl; P00519+Q13671; TR-FRET Rin1/Abl binding, biochemical; AID 588664; inhibition, % at 7.35 µM; hit rate 0.4% among 360,000; in the data active means inhibition above about 5%, passing the limit was not always enough
Neddyl block: cullin neddylation inhibition; hit rate 0.58% among 360,000; P61081+Q13564; TR-FRET cullin neddylation, biochemical; calls only at 25 µM; in the data active means inhibition above about 36%
NRP1-CendR mod: NRP-1/CendR interaction modulation; FAM-RPARPAR peptide binding to NRP-1, fluorescence polarization; inhibition, % at 25 µM; hit rate 0.85% among 360,000; AID 602438;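 active means inhibition or corrected inhibition above about 18%, plus a signal ratio from 0.5 to 1.5, limit read from the data, passing the limit was not always enough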; further: strong numbers were not always called active
SKN-1 block: inhibitors of C. elegans SKN-1 | inhibition, % at 21.8 µM | C. elegans VP596 Pgst-4::GFP/RFP ratio, acrylamide-induced, 24 h | hit rate 0.49% among 360,000 | AID 624304;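 active means interference check ratio from 0.5 to 1.5 plus GFP to RFP signal ratio inhibition reaching or exceeding a fixed threshold, cut at about 30% in these data, passing the limit was not always enough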; further: some compounds called inactive have numbers as strong as hits
PABP1 MLLE inh: inhibitors of microRNA-mediated deadenylation, human PABP1 MLLE binding. inhibition, % at 20 µM. P11940. hit rate 0.36% among 360,000. GST-MLLE / FITC-PAM2 fluorescence polarization; in the data active means inhibition above about 35%, passing the limit was not always enough;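 further: plate controls were DMSO wells with GST-MLLE for no effect and wells lacking GST-MLLE protein for full effect; some results filed as inactive read as strong as hits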
* hit, by the source's call; i = inactive; & = joins results of further samples.

Each structure is followed by: SKN-1 block | PABP1 MLLE inh | Rin1 Abl inh | NRP1-CendR mod | Neddyl block
1. COC(=O)N1C(=O)[C@](c2ccc(Cl)cc2)(C(C)C)N1C(=O)OC
→ -2 | 16 | -1 | 3 | i
2. C[C@H](C(=O)O)c1cccc(C(=O)c2ccccc2)c1
→ -3 | -12 | 2 | 0 | i
3. Cc1nn(CC(=O)O)c(C)c1Cl
→ 12 | -1 | -1 | -7 | i
4. CCN(CC)CCCC(C)n1c2nc(=O)[nH]c(=O)c-2nc2cc(Cl)ccc21 (centres undefined)
→ -85 | i | -7 | 142 | i
5. CC(C)(C(=O)O)c1ccc(C(O)CCCN2CCC(C(O)(c3ccccc3)c3ccccc3)CC2)cc1 (centres undefined)
→ 7 | 7 | 0 | -4 | i
6. Cn1c(=O)c(NCCO)c2c3c(cccc31)C(=O)c1ccccc1-2
→ -5 | i | -29 | 142 | i
7. CC(C)(C)CC(C)(C)c1ccc(OCCOCC[N+](C)(C)Cc2ccccc2)cc1
→ -14 | 7 | 1 | 2 | i
8. CCS(=O)(=O)c1ccc2oc(Nc3ccc(C(C)(C)C)cc3)nc2c1
→ 1 | -1 | -3 | -6 | i
9. CN1C2CC(OC(=O)C(CO)c3ccccc3)CC1C1OC12 (centres undefined)
→ -7&-2&2 | 8&17&-1 | -1&6&1 | 2&7&-10 | i
10. Cc1nc(-c2ccc(NC(=O)c3cccs3)cc2)cs1
→ -16 | -10 | -1 | 10 | i
11. CC(C)[N+]1(C)[C@@H]2CC[C@@H]1CC(OC(=O)C(CO)c1ccccc1)C2 (some centres undefined)
→ -21 | -3 | -2 | 2 | i
12. Cc1ccc(-c2cc(N)n(-c3ccccc3)n2)cc1
→ -1 | 2 | 1 | 8 | i
13. CN1C2CCC1CC(OC(=O)C(CO)c1ccccc1)C2 (centres undefined)
→ 6 | -2 | 1 | 0 | i
14. O=C(O)COCCN1CCN([C@H](c2ccccc2)c2ccc(Cl)cc2)CC1
→ 7 | -9 | -1 | 1 | i

Not all compounds are listed; count on the stated rates, not on these rows.
